TAR Tat displ – TAR RNA-Tat peptide displacers, HIV-1, primary screen, biochemical, FRET, FAM/TAMRA-labeled Tat; HIV-1 TAR RNA, Tat peptide displacement FRET; hits give high values; z-score (concentration not given with the values); 100,000 tested, 0.6% active;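 further: score is relative to mean and SD of negative controls; some compounds called inactive have numbers as strong as hits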
CDC25B CDK2 inh – primary biochemical HTRF screen for blockers of M-phase inducer phosphatase 2 binding to CDK2/cyclin A; z-score (test concentration not listed); HTRF CDC25B-CDK2/CyclinA binding, anti-His/anti-Flag; hits give high values; P30305+P24941; 94,000 tested, 0.72% active; AID 1259370, 2018;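 further: score is relative to mean and SD of negative controls; strong numbers were not always called active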
The depositor's hits bear a star; · = no result given.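 How the source made its calls: active means z-score from 3 up in half or more of its runs; inactive means the rest.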

SMILES	TAR Tat displ	CDC25B CDK2 inh
COc1cccc(-c2noc3ncnc(N4CCN(c5ncccn5)CC4)c23)c1	0.89	·
O=C1N2CCSC2=NC1(NS(=O)(=O)c1ccccc1)C(F)(F)F (stereo not drawn)	·	0.04
Cc1cc(C(=O)N/N=C/c2ccc([N+](=O)[O-])s2)no1	·	-0.94
CC1=C(c2ccc(C)c(C)c2)S(=O)(=O)N=C1N1CCN(Cc2ccccc2)CC1	1.1	1.1
Cc1ccsc1CCNC(=O)Cn1c(=O)oc2cc(S(=O)(=O)N3CCCC3)ccc21	-0.18	-0.45
CC1CCN(C(=O)c2nn(C)c3c2CSc2ccccc2-3)CC1	1	-0.03
CC1=C(c2cccc(Br)c2)S(=O)(=O)NC1=NC1CCCCC1C (stereo not drawn)	-1.1	-7.9
CCCCCOc1ccc(C2C(C(=O)OC)=C(C)N=C3SCCC(=O)N32)cc1 (stereo not drawn)	1.1	0.3
Cc1ccc(Cl)cc1N1CCN(CCCNc2nn3nnnc3c3ccccc23)CC1	0.36	·
O=C1CC(C(=O)Nc2ccc(C(=O)O)cc2)C2(CCCCC2)O1 (stereo not drawn)	1.2	0.5
CC(C)Cc1nn2c(=O)cc(COC(=O)c3ccco3)nc2s1	-0.13	·
Cc1csc2nc(COC(=O)COc3ccccc3Cl)cc(=O)n12	-0.38	·
COc1ccccc1Oc1cccc(C)c1	·	-0.16
Cc1noc(C)c1CSc1nnc2c(C)cc3ccccc3n12	·	0.4
CCCCCOc1ccc(C2c3c(oc4ccccc4c3=O)C(=O)N2c2nccs2)cc1 (stereo not drawn)	1.1	-2.4
O=S(=O)(c1ccccc1)N1CCCN(S(=O)(=O)c2ccccc2)CC1	·	3.4
COc1ccc2nc(NC(=O)Nc3cc(Cl)c(OC)cc3OC)sc2c1	5.3*	1.3
COCCCN1C(=O)c2oc3ccc(F)cc3c(=O)c2C12C(=O)N(C)c1ccccc12 (stereo not drawn)	0.38	-1
COc1ccc(-c2nc3c4cnn(-c5ccccc5Br)c4ncn3n2)cc1	1.1	0.81
COCCNC(=O)c1cc2nc(-c3cccs3)cc(C(F)(F)F)n2n1	0.89	0.57
O=C(CN1CCN(c2ccc(F)cc2)CC1)c1ccc2c(c1)CCN2	1.4	-0.46
CC(C)(C)OC(=O)C(C)(C)S(=O)(=O)c1ccc(C(F)(F)F)cn1	·	-0.28
CC1CCN(c2nn3c(=O)c(C(=O)NCCCN4CCOCC4)cnc3s2)CC1	-0.95	·
CCOc1ccccc1-c1noc(CSc2nnc(-c3ccncc3)n2CC)n1	0.51	-0.15
COC(=O)c1cnc(NN2C(=O)C=C(C)C2=O)nc1C(F)(F)F	·	-0.75
The list continues.
SMILES	TAR Tat displ	CDC25B CDK2 inh
CCn1c(=O)cc(C)n(-c2ccccc2)c1=O	0.42	-1.4
NNC(=O)Cn1nnc(-c2ccccc2Oc2ccc(Cl)cc2Cl)n1	·	2
COc1cccc(-n2c(C)nc3c(cnn3-c3ccccc3Cl)c2=O)c1	·	-0.56
S=C(Nc1cccnc1)NC1CCN(Cc2ccccc2)CC1	·	-1.1
CN1CCN(Cc2c(O)ccc3c(=O)c(Oc4ccc(C(C)(C)C)cc4)c(C(F)(F)F)oc23)CC1	-0.51	-1.1
Fc1ccc(C2=NC(c3ccncc3)=Nc3ccc(F)cc3N2)cc1	0.04	-0.29
O=C(CCN1C(=O)c2ccncc2C1=O)Nc1ccc(F)cc1	·	1.6
COc1cc(OC)cc(-n2nnc(-c3nc(-c4ccccc4)no3)c2N)c1	0.62	·
COC(=O)C1=C(C)Nc2nc3ccccc3n2C1c1cc(OC)ccc1OC (stereo not drawn)	1	-0.96
Nc1ncnc(Nc2cccc([N+](=O)[O-])c2)n1	·	0.23
COC(=O)c1ccc(Nc2nc3ccc(Cl)cc3n3cnnc23)cc1	1.7	-1.7
O=C(NC1CCCCC1)N1CCc2ccccc21	·	-0.22
O=S(=O)(c1ccccc1)c1csc(S(=O)(=O)N(Cc2ccccn2)Cc2ccccn2)c1	·	-1.2
Cc1cccn2c(=O)c(C(=O)NCc3cccs3)c(O)nc12	0.24	-1.7
CC1=C(C(=O)N2CCCC2)C2(CCN(S(=O)(=O)c3cccs3)CC2)OC1=O	1.3	·
CCCCn1c(SCC(=O)NC(C)CC)nc2ccsc2c1=O (stereo not drawn)	·	-1.6
Fc1ccccc1N1CCN(c2ncnc3onc(-c4cccc(Cl)c4)c23)CC1	0.92	-2.8
CC1CC(C)CN(C(=O)Cn2ncn3nc(-c4cccs4)cc3c2=O)C1 (stereo not drawn)	-1.9	-2.2
CCOc1cc(C2C(C#N)=C(N)Oc3cc(C)oc(=O)c32)ccc1O (stereo not drawn)	·	-0.39
CC(Sc1cc(-c2ccccc2)ncn1)C(=O)c1ccccc1 (stereo not drawn)	-0.16	-0.9
Cc1ccc(Nc2nc3ccccc3c3nnc(C)n23)cc1Cl	0.53	·
CCCN(Cc1cc2cc(C)ccc2[nH]c1=O)S(C)(=O)=O	1.8	-0.13
O=C(C1=NNCC1c1ccc2c(c1)OCO2)c1ccc2ccccc2c1 (stereo not drawn)	·	-1.5
C=CCSc1nnc2cc(C)c3cccc(C)c3n12	1	0.19
Cn1nc(-c2ccccc2)c(-c2ccccc2)c(C(=O)NC2CCCC2)c1=O	0.88	-0.71
Remaining list, next part.
SMILES	TAR Tat displ	CDC25B CDK2 inh
CCCC1c2ccc(C)n2CCN1C(=O)NCc1ccco1 (stereo not drawn)	-5.1	-0.51
CCN1CCN(C(=O)Cn2c3ccccc3c3nc(=O)cc(C)n32)CC1	2	-1.8
C=CCNC(=O)C(=O)NCc1ccccn1	1	-0.98
COc1ccc2c(c1)sc1ncc(C(=O)NCCCN3CCN(C)CC3)c(=O)n12	-0.27	-0.02
N#CC(C(=O)C1CC1)=C1SCCCS1	·	0.56
COc1ccc(-c2cn3c4c(=O)n(C)c(=O)n(C)c4nc3n2CCc2ccc(OC)c(OC)c2)cc1	·	0.82
O=C1C2C3c4ccccc4C(C(=O)O)(c4ccccc43)C2C(=O)N1c1ccccc1F (stereo not drawn)	-0.38	-0.25
Cc1ccc(-c2noc3ncnc(NCc4cccnc4)c23)cc1	1.8	·
Cc1cc(C(=O)C(F)(F)F)c(C)n1-c1ccccc1	·	-2.3
CCN(CC)c1nc(-c2ccc(OC)c(OC)c2)no1	0.59	-1.1
Cc1cc2c(cc1S(=O)(=O)N1CCC(C(N)=O)CC1)OCC(=O)N2	1.2	·
CSc1ncc(C(=O)Nc2ccncc2)c(-c2ccccc2)n1	1.8	·
CC(C)Cc1ccc(C(C)C(=O)Nc2cccc(-c3cnco3)c2)cc1 (stereo not drawn)	·	0.79
COC1C=CC=CC1S(=O)(=O)Cc1nc(-c2ccc(C(=O)O)cc2)oc1C (stereo not drawn)	2.3	-2.6
CN(C(=O)c1cc2c(s1)-c1ccccc1OC2)c1cccc(Cl)c1	-1.2	-1.8
CN(C)CC#Cc1cncc(C#N)c1	·	-0.97
Cc1c(C(=O)NCCCN2C(C)CCCC2C)sc2nc3n(c(=O)c12)CCCC3 (stereo not drawn)	-1.1	·
CCC(C)NC(=O)CCc1nnc2ccc(N3CCN(C)CC3)nn12 (stereo not drawn)	-0.99	·
Cc1cc(C)c(CSC2=NCCS2)c(C)c1	·	-0.4
O=C(Nc1ccc2c(c1)OCO2)N1CCN(Cc2nc3cccnc3n2-c2ccccc2)CC1	0.6	·
COc1ccc(Br)cc1S(=O)(=O)N1CCC(C(N)=O)(N2CCCCC2)CC1	3.2	-2.7
Cc1ccc(O)c(-c2n[nH]c3c2C(c2ccc(C(C)C)cc2)N(CCCO)C3=O)c1 (stereo not drawn)	1.4	0.65
Cn1c(C(=O)N2CCOCC2)cc2cc(S(=O)(=O)N3CCCCC3)ccc21	0.88	·
O=S(=O)(c1cc(Cl)c(Cl)cc1Cl)N1CC=CCC1	·	-0.47
COC(=O)C1=C(OC(=O)COc2ccc(OC)cc2)c2ccccc2S(=O)(=O)N1C	1.2	-2.1
Continued:
SMILES	TAR Tat displ	CDC25B CDK2 inh
Clc1ccccc1CN1CCN(Cc2ccco2)CC1	0.51	-0.8
CCn1nc(C)c(CNC(=O)Nc2ccc(Cl)cc2)c1C	1.1	·
COc1ccc(-c2nc(=S)c3c(n2CCc2ccccc2)CC(C)(C)OC3)cc1	0.79	0.33
COc1cc(C)c(S(=O)(=O)N2CCN(S(=O)(=O)c3cc(C)c(OC)cc3C)C(C)C2)cc1C (stereo not drawn)	0.67	-0.1
O=C(CSc1nccn1C1CCCC1)Nc1cccc(Cl)c1	1.5	·
O=C(Oc1ccc2ccc(=O)oc2c1)c1ccccc1	·	-1
CC(Sc1nc2sc3c(c2c(=O)n1C)CC(C)(C)OC3)C(=O)Nc1ccccc1 (stereo not drawn)	-0.13	-1.7
CCOC(=O)CSc1nc(-c2ccco2)nc2c1c(=O)n(C)c(=O)n2C	·	-1.8
N/C(=N\OC(=O)c1sc2ccccc2c1Cl)c1cccc([N+](=O)[O-])c1	·	-2.1
CN(C)C=Nc1ccc(Oc2cncc(Cl)c2)nc1	·	-2.1
CCc1cc2c(=O)c(-c3nc4ccccc4s3)coc2cc1O	1.2	-1.3
CC1CCN(S(=O)(=O)c2cn(CC(=O)NC(C)(C)C)cn2)CC1	1.1	·
Cc1cc(=O)nc2c3ccccc3n(CC(=O)NCCCOC(C)C)n12	-2.3	-1.4
C=CCN1CC(c2nc3ccccc3n2CC(C)C)CC1=O (stereo not drawn)	0.89	-2.1
Cc1cccn2c(Nc3ccc4c(c3)OCCO4)c(-c3ccsc3)nc12	·	-1.6
O=C(c1cccs1)N1CCN(S(=O)(=O)c2cc3c4c(c2)CCN4C(=O)CC3)CC1	1.3	·
CCOC(=O)N1CCC(NC(=O)c2cc(C)on2)CC1	·	-1.3
CC1=NC2c3c(oc(C(=O)NC4CC4)c3C)CCC2S1 (stereo not drawn)	0.81	·
Cc1nn(CCCC(=O)N2CCN(c3ccccc3)CC2)c(=O)c2cc3occc3n12	1	-1
CC(C)c1nc2n(n1)C1(CCCCC1)[C@@H]1CCCC[C@@H]1N2	0.87	-0.39
Cc1nn(-c2ccccc2)c2c1C1(C(=O)Nc3ccc(F)cc31)C(C#N)=C(N)O2 (stereo not drawn)	·	-1.9
CSCCC(NS(=O)(=O)c1cccs1)C(=O)Nc1cccc(Cl)c1 (stereo not drawn)	·	-1.9
CS(=O)(=O)Nc1ccc(C2=NN(C(=O)c3cccs3)C(c3cccc(F)c3)C2)cc1 (stereo not drawn)	·	0.09
CCC1CCCCN1C(=O)C1=C(C)C(=O)OC12CCC(C)CC2 (stereo not drawn)	2.1	-1.9
O=C(O)CCc1nc(-c2ccc(OCc3ccccc3)cc2)no1	-1.2	-0.15
(listing goes on)
SMILES	TAR Tat displ	CDC25B CDK2 inh
COc1ccc(-n2nnnc2C2CCN(S(=O)(=O)c3ccc(OC)cc3)CC2)cc1	0.86	-1.2
CCOC(=O)c1cc(S(=O)(=O)Nc2ccc(OCC)cc2)cn1C	0.79	-0.54
COc1ccc(NC(=O)C(C(=O)Nc2ccc(OC)cc2OC)c2ccccc2)c(OC)c1	·	-0.53
Nc1c(-c2nc(-c3cccs3)no2)nnn1-c1ccccc1Cl	0.15	·
CCC(C)NC(=O)Cn1ncn2c(cc3sc(C)cc32)c1=O (stereo not drawn)	0.81	1.5
CCCOc1ccc(N2C(=O)CC(NCCCN3CCN(CC)CC3)C2=O)cc1 (stereo not drawn)	·	-0.46
CCn1cc(C2=NOC(C(=O)Nc3cc(C)nn3-c3ccccc3)C2)c(C)n1 (stereo not drawn)	0.75	-0.49
CCCN1C(C(=O)c2ccccc2)=C(OC(=O)c2ccc(F)cc2)c2ccccc2S1(=O)=O	0.26	-0.86
CCOC(=O)c1c(C)[nH]c(C)c1S(=O)(=O)NCCc1cccs1	0.3	·
CC(=O)N1c2ccc(S(=O)(=O)N3CCC(C(=O)Nc4ccccn4)CC3)cc2CC1C (stereo not drawn)	1.4	·
O=C1c2cccc3cccc(c23)C(=O)N1CCC(=O)n1nnc2ccccc21	·	-2.1
COc1ccc(C2CC(=O)Nc3cc4c(cc32)OCO4)c(OC)c1 (stereo not drawn)	·	-1.6
C=CCOc1ccc(/C(O)=C2/C(=O)C(=O)N(CCOC)C23C(=O)N(CC)c2ccccc23)cc1C (stereo not drawn)	0.72	-2.9

Grouped by structure, those above with fluorine (15)
SMILES	TAR Tat displ	CDC25B CDK2 inh
O=C1N2CCSC2=NC1(NS(=O)(=O)c1ccccc1)C(F)(F)F (stereo not drawn)	·	0.04
COCCCN1C(=O)c2oc3ccc(F)cc3c(=O)c2C12C(=O)N(C)c1ccccc12 (stereo not drawn)	0.38	-1
COCCNC(=O)c1cc2nc(-c3cccs3)cc(C(F)(F)F)n2n1	0.89	0.57
O=C(CN1CCN(c2ccc(F)cc2)CC1)c1ccc2c(c1)CCN2	1.4	-0.46
CC(C)(C)OC(=O)C(C)(C)S(=O)(=O)c1ccc(C(F)(F)F)cn1	·	-0.28
COC(=O)c1cnc(NN2C(=O)C=C(C)C2=O)nc1C(F)(F)F	·	-0.75
CN1CCN(Cc2c(O)ccc3c(=O)c(Oc4ccc(C(C)(C)C)cc4)c(C(F)(F)F)oc23)CC1	-0.51	-1.1
Fc1ccc(C2=NC(c3ccncc3)=Nc3ccc(F)cc3N2)cc1	0.04	-0.29
O=C(CCN1C(=O)c2ccncc2C1=O)Nc1ccc(F)cc1	·	1.6
Fc1ccccc1N1CCN(c2ncnc3onc(-c4cccc(Cl)c4)c23)CC1	0.92	-2.8
O=C1C2C3c4ccccc4C(C(=O)O)(c4ccccc43)C2C(=O)N1c1ccccc1F (stereo not drawn)	-0.38	-0.25
Cc1cc(C(=O)C(F)(F)F)c(C)n1-c1ccccc1	·	-2.3
Cc1nn(-c2ccccc2)c2c1C1(C(=O)Nc3ccc(F)cc31)C(C#N)=C(N)O2 (stereo not drawn)	·	-1.9
CS(=O)(=O)Nc1ccc(C2=NN(C(=O)c3cccs3)C(c3cccc(F)c3)C2)cc1 (stereo not drawn)	·	0.09
CCCN1C(C(=O)c2ccccc2)=C(OC(=O)c2ccc(F)cc2)c2ccccc2S1(=O)=O	0.26	-0.86
